CSC inhib = blocks cancer stem cells | cancer stem cell-like cells viability, luminescence | inhibition, % at 7.5 µM | actives 1.1% (n = 300,000) | AID 2717;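 active = mean at 75% or more and at least half the replicates too; inconclusive = mean and replicates disagree; tested in HMLE shEcad cells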;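 note: 0% = median of negative and 100% = median of positive control wells; the first replicate is given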
Rce1 inh = blocks yeast Ras-converting enzyme; Q03530; yeast membranes, quenched prenylated peptide cleavage fluorescence; calls only; actives 0.27% (n = 290,000);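 active = fall in fluorescence gain of 50% or more versus controls, with final raw signal at or below 3038400; inconclusive = same 50% fall but final raw signal above 3038400; inactive = fall in fluorescence gain under 50%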;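 note: plate controls were neutral control wells for no effect and wells lacking membranes for full effect; tested at 10 µM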
UUG fidelity = alters start codon recognition fidelity in yeast; S. cerevisiae UUG-firefly luciferase reporter, luminescence/redox ratio; AID 602363; actives 0.13% (n = 350,000); activity score, % at 18.7 µM;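 active = replicate mean at a twofold rise or more, about +100% in these data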;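 note: firefly luciferase made from a UUG start codon reports start codon fidelity; reporter light over untreated wells divided by growth signal over untreated wells; some hits fall short of that in this replicate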
MT1-MMP act inh = inhibitors of human MT1-MMP activation; P50281; HT1080 RFP-PRO-GFP cells, GFP/RFP ratio fluorescence, overnight; percent of plate control window, DMSO zero; GFP/RFP ratio change, % at 20 µM; actives 0.061% (n = 360,000); AID 651647;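 active = GFP/RFP ratio change of at least 30% with cell ATP level not reduced by more than half and red fluorescence within 50% of control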; note: strong numbers were not always called active
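Test system: HT1080 RFP-PRO-GFP cells; Benchmarks: DMSO and RFP-L50D-GFP cell wells; Timing: cells overnight before dosing, compound overnight, 37 °C, 5% CO2; Compound: one 20 µM compound dose with 1% DMSO; Read-out: GFP/RFP fluorescence ratio.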
Env fusion inh = blocks HIV Env-driven cell-cell fusion. HeLa-JRFL Env/CEM21 cell fusion, luciferase. inhibition, % at 12.3 µM. actives 1.1% (n = 360,000);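 active = mean replicate inhibition score of at least 50 and every replicate individually at or above 50; inconclusive = only one of the two criteria met; inactive = mean below 50 and not all replicates reaching 50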;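 note: 0% = plate neutral controls and 100% = maraviroc near 300 nM; one replicate is shown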
PABP FP inh = blocks human PABP binding to poly(A) RNA. fluorescence polarization. inhibition, % at 35 µM. actives 1% (n = 290,000);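 active = 50% or more with normal probe brightness, or confirmed in later tests; inconclusive = above 50% with abnormal brightness, or retests that disagree; inactive = below 50% or failed in later tests; about a fifth of its hits are not listed in these tables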;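 note: calls also rest on retests at 20 µM and on dose response follow-up; controls were probe without protein and protein plus probe with vehicle; some compounds called inactive have numbers as strong as hits; many hits fall short of the cut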
Target sequence (P11940 whole entry, looked up): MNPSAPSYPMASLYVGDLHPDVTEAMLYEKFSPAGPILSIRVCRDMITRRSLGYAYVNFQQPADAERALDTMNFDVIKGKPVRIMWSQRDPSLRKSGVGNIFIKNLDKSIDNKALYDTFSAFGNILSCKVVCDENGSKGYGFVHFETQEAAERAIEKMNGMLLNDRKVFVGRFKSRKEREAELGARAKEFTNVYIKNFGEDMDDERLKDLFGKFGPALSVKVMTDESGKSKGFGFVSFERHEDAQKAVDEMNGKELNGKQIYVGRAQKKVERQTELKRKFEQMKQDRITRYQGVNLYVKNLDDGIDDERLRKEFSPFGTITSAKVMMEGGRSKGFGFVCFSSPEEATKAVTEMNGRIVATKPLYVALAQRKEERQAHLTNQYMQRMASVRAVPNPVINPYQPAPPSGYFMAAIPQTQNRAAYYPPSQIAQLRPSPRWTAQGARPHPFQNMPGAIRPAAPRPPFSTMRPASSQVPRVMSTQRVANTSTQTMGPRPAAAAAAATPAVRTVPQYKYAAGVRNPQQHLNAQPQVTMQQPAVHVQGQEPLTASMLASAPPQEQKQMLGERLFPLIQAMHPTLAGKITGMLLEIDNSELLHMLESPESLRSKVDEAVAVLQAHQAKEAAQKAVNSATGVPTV
eIF4H inh = inhibitors of RNA binding by human eIF4H. Q15056. actives 0.94% (n = 290,000). inhibition, % at 35 µM. eIF4H fluorescence polarization binding assay;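 active = 50% or more with normal probe brightness, or confirmed in later tests; inconclusive = above 50% with abnormal brightness, or retests that disagree; inactive = below 50% or failed in later tests; about a fifth of its hits are not listed in these tables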;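 note: calls also rest on retests at 20 µM and on dose response follow-up; 0% = protein and probe with vehicle and 100% = probe without protein; strong numbers were not always called active; many hits fall short of the cut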
eIF4H inh retest = further read-out of eIF4H inh, marked with its call; inhibition, %; compound at 20 µM; confirmation average;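 mean of two retest wells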
PABP FP inh retest = also measured in PABP FP inh; calls as there; inhibition, %; compound at 20 µM; confirmation repeats;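 mean of two retest wells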
MT1-MMP act inh RFP = recorded beside MT1-MMP act inh, whose call it bears; RFP signal change, %; measured here: RFP expression control read;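 0 = vehicle wells; hits needed this value within 50% of zero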
Starred values were filed as active, the others as inactive; i = inactive; ? = inconclusive; . = no result given; & = joins results of further samples. This is a subset (hit frequency here may not be typical).

SMILES	CSC inhib	Rce1 inh	UUG fidelity	MT1-MMP act inh	MT1-MMP act inh RFP	Env fusion inh	PABP FP inh	eIF4H inh	others
CCN1CCN(CCNC(=O)c2ccc(CS(=O)(=O)c3ccccc3C)o2)CC1	-10	i	-20	-4	2	.	17	11
O=C(NC(Nc1nc2ccc([N+](=O)[O-])cc2s1)(C(F)(F)F)C(F)(F)F)c1ccccc1Cl	98*	i	.	-15	-33	25	-5	-11
COc1ccc(C(=O)Nc2ccnn2C2CCN(C3CCC3)CC2)cc1	15	i	-6	1	3	-3	3	4
Cn1cc(CNCc2cnc3ccccn23)c(-c2ccc(Oc3ccccc3)cc2)n1	-2	i	.	-5	-12	5	-7	4
O=S(=O)(c1cccc(C(F)(F)F)c1)N1CCN(CC(O)COCc2ccccc2)CC1 (stereo not drawn)	-1	.	-32	5	0	-33	.	.
O=C(O)CCc1ccc(-c2cccs2)n1CCc1ccccc1	6	i	0	-8	2	0	2	12
O=C(Cc1ccccc1F)Nc1ccc2c(c1)CCC2	-7	i	-28	0	3	-15	5	-10
CC(C)(C)NS(=O)(=O)c1ccc(OCC(=O)NCCC2=CCCCC2)cc1	9	i	14	5	1	1	-10	-5
O=C(Cc1ccccc1)Nn1c(O)c(/C=C2\C=Nc3ccccc32)sc1=S	35	i	.	-99	9	3	-7	?
O=C(c1ccc(Br)o1)N1CCN(c2ccc3nnc(-c4ccc(F)cc4)n3n2)CC1	-13	i	-15	1	-2	-19	-12	-3
CC(=O)Oc1ccc2c3c(c(=O)oc2c1)CCCC3	-7	i	-6	0	3	-13	-6	-3
Nc1nc(-c2ccccn2)nc(N)c1Cc1ccc(Cl)cc1Cl	-10	i	.	-2	-15	24	-11	70*	eIF4H inh retest=56*;PABP FP inh retest=28
CCC(C)(C)n1nnnc1C(C(C)C)N(CCN1CCOCC1)Cc1cc2cccc(C)c2[nH]c1=O (stereo not drawn)	0	i	-11	-7	-5	-23	11	3
COc1cc(C(=O)Nn2c(CC(C)C)nc3ccccc3c2=O)cc(OC)c1OC	-5	i	-1	1	-3	-27	1	-8
Cc1nc(-c2noc(-c3ccccc3Cl)n2)c(C(F)(F)F)o1	-10	i	-6	-2	-1	-40	3	-1
COc1cc(C(=O)Nc2sc3c(c2C(=O)NCc2ccco2)CCCC3)cc(OC)c1OC	11	i	-12	12	1	.	-2	-7
CC(=O)NS(=O)(=O)c1ccc(NC(=O)/C=C/c2ccco2)cc1	-5	i	.	-2	2	-15	-15	47
CSCCC(NS(=O)(=O)c1ccc2ccccc2c1)C(=O)O (stereo not drawn)	-19	.	-16	2	8	.	-12	-6
COc1ccc(NC(=O)c2cc(S(=O)(=O)N3CCOCC3)ccc2C)cc1S(=O)(=O)N1CCOCC1	0	.	-5	0	0	-2	.	.
O=C(Cc1ccc(Br)cc1)Nc1cccc(Cl)c1	7	i	.	0	-1	8	0	-1
C=CCNC(=O)N1CCC(CO)(Cc2ccc(Cl)cc2)CC1	-16	i	7	0	-1	-12	-6	-8
CC1=C(C(=O)Nc2ccc(Br)cc2)C(c2ccco2)NC(=O)N1 (stereo not drawn)	12	i	-19	-5	-11	.	12	-1
COc1ccc2c(CC(=O)NCCN3C(=O)S/C(=C\c4cccnc4)C3=O)coc2c1	3	i	.	-4	-1	8	12	3
CCC(=O)c1cn(/C(=C\C(=O)OC(C)(C)C)CCC(OC)OC)cc1CC	13	i	2	-3	0	0	.	.
CC1CCCCN1C(=O)CN1C(=O)CN(C)C(=O)c2ccccc21 (stereo not drawn)	5	i	-13	4	3	7	-4	-6

Part of the list above in order of length of the SMILES, falling.
SMILES	CSC inhib	Rce1 inh	UUG fidelity	MT1-MMP act inh	MT1-MMP act inh RFP	Env fusion inh	PABP FP inh	eIF4H inh	others
CCN1CCN(CCNC(=O)c2ccc(CS(=O)(=O)c3ccccc3C)o2)CC1	-10	i	-20	-4	2	.	17	11
CC(C)(C)NS(=O)(=O)c1ccc(OCC(=O)NCCC2=CCCCC2)cc1	9	i	14	5	1	1	-10	-5
Cc1nc(-c2noc(-c3ccccc3Cl)n2)c(C(F)(F)F)o1	-10	i	-6	-2	-1	-40	3	-1
O=C(O)CCc1ccc(-c2cccs2)n1CCc1ccccc1	6	i	0	-8	2	0	2	12

Additional results follow:
SMILES	CSC inhib	Rce1 inh	UUG fidelity	MT1-MMP act inh	MT1-MMP act inh RFP	Env fusion inh	PABP FP inh	eIF4H inh	others
COc1ccc(NC(=O)c2cc(C)cc(C)c2)cc1S(=O)(=O)N1CCCCC1	.	.	-8	1	0	15	.	.
COc1cc(OC)cc(C(=O)NCC(=O)NCCN2C(=O)S/C(=C\c3ccccc3Cl)C2=O)c1	-20	.	-13	-10	-5	.	.	.
N/C(=N\OC(=O)c1cc(-c2ccccc2)nc2ccccc12)c1ccccn1	35	i	.	-5	-7	-2	-6	-8
CCCc1nnc(SCC(=O)Nc2ccc3c(c2)OCCO3)n1CCOC	-3	i	-19	4	4	-3	-3	-5
CCOC(=O)N1CCN(c2nnc(-c3ccc(C)cc3)c3ccccc23)CC1	-2	i	.	0	-2	29	-7	8
C[C@@H]1CCCCO[C@@H](CN(C)S(=O)(=O)c2cccs2)[C@@H](C)CN([C@H](C)CO)C(=O)c2cc(NS(=O)(=O)c3ccccc3)ccc2O1	.	.	-4&-13	-2	-6	-22	.	.
O=C(CN1C(=O)C2CC=CCC2C1=O)Nc1ccc(S(=O)(=O)Nc2ncccn2)cc1 (stereo not drawn)	-8	i	-6	0	2	-1	-5	6
Cc1cccc(N2CCN(S(=O)(=O)c3ccc4[nH]c(=O)c(=O)[nH]c4c3)CC2C)c1 (stereo not drawn)	17	i	.	.	.	.	-2	-6
Cc1nc(C)n(CC(=O)c2ccc(Cl)cc2Cl)n1	-10	i	.	-2	-2	1	-2	-4
Cc1ccc(C(=O)N/C(=C\c2ccc(-c3ccc(Br)cc3)o2)C(=O)NC2CCS(=O)(=O)C2)cc1 (stereo not drawn)	-17	i	.	-7	-7	-5	41	6
O=C(NCCc1ccccc1)c1ccc(S(=O)(=O)N2CCCCC2)cc1	.	.	-2	2	3	-10	.	.
Cc1ccccc1CC(=O)Nc1cccc(S(=O)(=O)N2CCCC2)c1	10	.	-11	1	-2	-17	.	.
CCCc1[nH]n(-c2ccc(F)cc2)c(=O)c1C=Nc1ccc(C)cc1	13	i	.	-1	-4	-3	-16	-7
Cc1ccc(OCC(O)CN2CCN(CC(O)COC(C)C)CC2)c(C(C)(C)C)c1 (stereo not drawn)	-4	i	-8	-3	-2	-26	-1	-3
CC(=O)N1CCCc2cc(S(=O)(=O)N3CCCC(C(=O)Nc4ccc(C)cc4C)C3)ccc21 (stereo not drawn)	-19	i	-5	2	-7	-1	.	.
Cc1[nH]c2ccc(F)cc2c1CCN(Cc1ccncc1)C(=S)Nc1ccc(F)cc1	5	i	-22	0	0	-12	14	-7
NC(=O)c1cc2ccc(O)cc2oc1=NCc1ccccc1	.	i	-4	-72	-9	.	-1	57	eIF4H inh retest=3;PABP FP inh retest=-2
CC(C)(C)OC(=O)N1CCC(C(=O)Nc2cccc(C(=O)NCCCc3ccccc3)c2)CC1	.	.	-7	-4	-21	5	.	.
Brc1ccc(-c2noc3c2-c2nc(C4CCCCC4)sc2CC3)cc1	0	i	-8	0	5	2	.	.
Cc1cc(CNC(=O)C2(C(F)(F)F)C/C(=C\Cc3ccccc3)CCCO2)nn1C (stereo not drawn)	0	i	-15	-1	0	9	.	.
O=C(O)c1cc(/C=C/c2ccc(N3CCOCC3)cc2)nc2ccccc12	31	i	.	-9	6	-28	7	?
O=C(c1cc(Cl)ccc1OCc1ccccc1)N1CCOCC1	-2	i	-2	-1	2	-14	-4	-11
CCN(Cc1ccccc1)C(=O)COc1cc(=O)n(CC)c2ccccc12	-5	i	2	7	7	-27	-8	-2
O=C(CCC1CCCCC1)NCc1cccs1	-13	i	-12	10	-2	.	2	-8
CCC1=Nc2cc(C(=O)NCc3ccco3)ccc2Sc2ccc(Cl)cc21	55	i	.	5	-4	?	0	16
(cont.)
SMILES	CSC inhib	Rce1 inh	UUG fidelity	MT1-MMP act inh	MT1-MMP act inh RFP	Env fusion inh	PABP FP inh	eIF4H inh	others
COc1ccc(C)cc1S(=O)(=O)N1CCC(C(=O)NCCC2=CCCCC2)CC1	3	.	23	-3	-8	-13	-14	-12
COC(=O)C1CCN(S(C)(=O)=O)CC1	-4	i	-12	-3	-3	21	-6	0
O=S(=O)(NCC1CN(S(=O)(=O)c2c(F)cccc2F)C1)c1ccc2c(c1)OCCO2	3	.	-11	3	-26	45	.	.
COCCNc1ncnc2c1cnn2-c1ccc(Cl)cc1	7	i	-6	6	1	-179	5	-3
COc1ccc(CCNC(=O)c2cc3ccccn3n2)c(OC)c1OC	-7	i	-4	1	4	.	6	1
OC1(c2cccs2)CN(c2ccc(Br)cc2)C2=[N+]1CCCS2 (stereo not drawn)	33	i	-9	1	4	4	5	0
NC(N)=Nc1nc2ccc(Br)cc2c(=O)[nH]1	-10	i	.	-1	1	-19	-6	-13
CC12CCC(C(=O)NCCCn3ccnc3)(OC1=O)C2(C)C (stereo not drawn)	-5	i	6	1	5	.	-12	-10
O=C(COC(=O)CSc1nnc(-c2ccc(Cl)cc2)o1)NCc1ccc2c(c1)OCO2	-1	i	-17	4	3	.	6	-9
CC1CCN(C(=S)c2ccc3c(c2)OCO3)CC1	-17	i	-26	-5	-2	-41	-8	-11
CC(=O)N[C@@H](CC(=O)N[C@H](CCC(=O)O)C(=O)O)C(=O)O	-9	.	-19	-1	4	.	.	.
Cc1cc(C#N)c(C)c(SCc2[nH]nc3c2C(c2ccccc2)C(C#N)=C(N)O3)n1 (stereo not drawn)	16	i	-16	1	5	-29	10	1
COc1cc(OC)cc(C(=O)NCCSCc2ccco2)c1	.	i	.	.	.	-13	-1	13
Cc1ccc(Nc2ncnc3c2oc2ccccc23)cc1	10	i	-18	-1	-4	.	18	-8
COc1ccc(NC(=O)c2cc(-c3ccc(C)o3)nc3ccccc23)c(OC)c1	15	i	-20	4	0	-10	.	.

Filtered by structure: the entries above with an aryl thioether with sulfur outside any ring.
SMILES	CSC inhib	Rce1 inh	UUG fidelity	MT1-MMP act inh	MT1-MMP act inh RFP	Env fusion inh	PABP FP inh	eIF4H inh	others
CCCc1nnc(SCC(=O)Nc2ccc3c(c2)OCCO3)n1CCOC	-3	i	-19	4	4	-3	-3	-5
O=C(COC(=O)CSc1nnc(-c2ccc(Cl)cc2)o1)NCc1ccc2c(c1)OCO2	-1	i	-17	4	3	.	6	-9
Cc1cc(C#N)c(C)c(SCc2[nH]nc3c2C(c2ccccc2)C(C#N)=C(N)O3)n1 (stereo not drawn)	16	i	-16	1	5	-29	10	1
